Rango-impB inh – prevents formation of the Rango-importin beta complex | Rango CFP/YFP FRET sensor + importin beta, 45 min | Potency, µM (series often up to 92.2 µM), for inactives: top-dose inhibition of complex formation | hit rate 0.031% among 340,000 | AID 540263; active = rising FRET ratio curve, often small or poorly fitted; inconclusive = mostly compound fluorescence or quenching in the first reads; inactive = flat curves in all reads;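 also: potency is read from the fitted curve at half-maximal effect; 0% = DMSO wells and 100% = buffer wells lacking importin beta; nearly all actives have a fitted effect of over 15% in size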
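Inhibition scored from the CFP 486 nm/YFP 530 nm FRET ratio 45 min after adding 0.125 microM importin beta to 50 nM Rango biosensor preincubated 5 min with compound (room temperature, PBS with DTT, Tween-20, BSA). No-importin wells as positive control.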
Rango release inh – prevents RanGTP from dissociating the Rango-importin beta complex | O95149+P62826 | Biochemical FRET Rango-importin beta, RanGTP-induced dissociation | Potency, µM (top dose mostly 46.1 µM), for the others: top-dose activity change, negative = inhibition | hit rate 0.071% among 340,000; active means falling FRET ratio curve, often poorly fitted, with flat reads before Ran was added; inconclusive means other falling curves, or compound fluorescence or quenching; inactive means flat or rising ratio curve;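 also: potency is read from the fitted curve at half-maximal effect; % of control where 0% means no effect; nearly all actives have a fitted effect of over 45% in size; -100% = wells without RanGTP and RCC1; the record marks most hits as doubtful in a second field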
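Compounds preincubate 5 min with complex of recombinant Rango and importin beta in PBS with 1 mM DTT. Ran (0.6 uM) loaded with 2 mM GTP plus 0.2 uM RCC1 starts dissociation; FRET is recorded 45 min later.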
GLA inh pH 4.5 – alpha-galactosidase A (human) inhibition, pH 4.5; 230,000 tested, under 10 active; P06280; purified enzyme, 4-MU-alpha-Gal fluorescence, pH 4.5; AID 1467; activity change, negative = inhibition, % at 105 µM; inconclusive = small, poorly fitted or top-dose-only inhibition, or a rising curve; inactive = flat fitted curve, though single readings scatter; no compound was filed as active;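 also: 0% = full activity with enzyme and -100% = basal without enzyme; dose as in the result columns while the protocol names 77 µM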
Target sequence (P06280 whole entry, looked up): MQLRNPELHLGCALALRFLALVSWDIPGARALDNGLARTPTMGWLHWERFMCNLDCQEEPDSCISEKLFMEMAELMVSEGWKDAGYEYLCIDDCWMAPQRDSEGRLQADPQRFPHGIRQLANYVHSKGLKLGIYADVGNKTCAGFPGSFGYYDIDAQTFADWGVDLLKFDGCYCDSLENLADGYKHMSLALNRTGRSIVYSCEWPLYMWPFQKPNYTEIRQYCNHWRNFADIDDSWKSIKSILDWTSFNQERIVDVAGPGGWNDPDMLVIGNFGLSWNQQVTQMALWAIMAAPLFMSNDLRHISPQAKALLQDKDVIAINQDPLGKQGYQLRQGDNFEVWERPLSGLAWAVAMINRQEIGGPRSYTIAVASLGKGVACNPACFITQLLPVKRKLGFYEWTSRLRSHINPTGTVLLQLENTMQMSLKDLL
miR-21 reporter – miR-21 reporter, rising signal | HeLa miR-21 FLuc reporter, luciferase, 48 h | Potency, µM (series often up to 38.3 µM), inactives show top-dose reporter change, positive = more light | 340,000 tested, under 10 active | AID 2288; active = well fitted rising curve with a large enough effect; inconclusive = small, poorly fitted or top-dose-only effect; inactive = no such curve, though single readings can be large or run the other way;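 also: % of control where 0% means no effect; miR-21 action dims this reporter so a rising signal means less miR-21 action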
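Compounds were titrated across several concentrations (up to approximately 40 uM) and incubated 48 hours with HeLa miR-21-FLuc reporter cells (miR-21 target sequence downstream of FLuc, endogenous miR-21). Readout was firefly luciferase luminescence after lytic detection reagent.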
Active calls of the source: *; ? = inconclusive; . = no result given.

SMILES	Rango-impB inh	Rango release inh	GLA inh pH 4.5	miR-21 reporter
Cc1ccc(S(=O)(=O)N2CCC(C(=O)OC(C)C(=O)NCc3ccc4c(c3)OCO4)CC2)cc1 (centres undefined)	-3.3%	4.3%	0.5	-4.1%
CCCCc1cc(=O)oc2c3c(cc(OCC(=O)NCCCO)c12)OC(C)(C)CC3	1.0%	?	.	-26.1%
CSCCC(NS(=O)(=O)c1ccc2ccccc2c1)C(=O)OCC(=O)c1ccc(C(C)C)cc1 (centres undefined)	0.7%	?	-11.2	-0.1%
CCSc1nnc(NC(=O)COc2ccc3ccccc3c2)s1	?	2.2%	2.7	-3.9%
C=CCN(C(=O)CNC(=O)c1cccs1)C(C(=O)NC1CCCCC1)c1cccnc1 (centres undefined)	2.2%	-8.4%	-1.7	-0.6%
COc1ccccc1[C@@H]1C(c2ccccc2)=NN(c2ccc(Br)cc2)[C@H]1C(=O)N1CCOC1=O	?	-5.8%	-1.8	.
CN(C)S(=O)(=O)c1cccc(NC(=O)c2ccncc2)c1	3.6%	0.8%	11.5	-2.9%
Cc1onc(-c2c(F)cccc2Cl)c1C(=O)N1C=CC(C(F)(F)Cl)=NCC1	-3.9%	-8.0%	1.3	-0.5%
CC1CN(C2CCN(S(=O)(=O)c3ccc4ccccc4c3)CC2)CC(C)O1 (centres undefined)	-1.2%	-3.0%	-8.1	-8.3%
COc1ccc(C2(CNC(=O)c3ccccc3)CCCC2)cc1OC	-0.4%	?	.	-6.9%
C[C@]12CC[C@@H]3c4cc(O)c(O)cc4CC[C@H]3[C@@H]1CC[C@@H]2O	-4.6%	-16.3%	-11.3	16.0%
CCn1c(SCC(=O)N/N=C/c2ccccc2OCC(=O)O)nnc1-c1ccc(C(C)(C)C)cc1	3.8%	6.9%	0.0	-1.8%
Cc1ccc(-n2[nH]c(C)c(/C=N/n3c(C)nc4ccccc4c3=O)c2=O)cc1	0.0%	3.5%	8.1	-5.0%
CCCn1c(N)c(Br)c(=O)[nH]c1=O	2.1%	13.3%	8.8	-3.1%
O=C(CCc1nc2ccccc2c(=O)[nH]1)N1CCN(c2ccccc2Cl)CC1	4.8%	-2.3%	.	.
CCNC(=O)CC1C(=O)N(c2ccc(F)cc2)C(=O)N1CCC(C)C (centres undefined)	-0.2%	-8.6%	3.7	-10.2%
COc1cccc(NC(=O)C(NCCc2ccc(S(N)(=O)=O)cc2)c2ccccc2)c1 (centres undefined)	-1.2%	0.2%	.	4.9%
CCNC(=O)C1CCCN1S(=O)(=O)c1ccc2ccccc2c1 (centres undefined)	5.8%	-13.6%	.	-0.6%
Cc1ccc(S(=O)(=O)N(C)c2ccc(OCC(=O)Nc3nc4c(ccc5ccccc54)s3)cc2)cc1	0.4%	-9.0%	-4.7	-11.3%
CC(C)CNC(=O)C1C2C=CC(C2)C1C(=O)O (centres undefined)	3.9%	1.2%	5.6	-5.2%
CN(C)CCCNC(=O)C1CCNCC1	?	?	-4.7	0.1%
O=[N+]([O-])c1ccc(N=Nc2ncc[nH]2)cc1	?	4.3%	.	?
Cc1cc(NCCCn2ccnc2)n2c(nc3ccccc32)c1C#N	-4.1%	-26.4%	?	2.7%
COc1ccc(N2C(=O)C3CCCN3C2c2ccccc2OC)cc1 (centres undefined)	-0.3%	-5.8%	-0.2	2.0%
CC(=O)Nc1ccccc1C(=O)C(=O)Nc1ccc(C)c(C)c1	0.0%	8.0%	-4.7	-74.1%
Going on with the list.
SMILES	Rango-impB inh	Rango release inh	GLA inh pH 4.5	miR-21 reporter
COc1cccc(OC)c1C(=O)N[C@@H]1C(=O)N2[C@@H]1SC(C)(C)[C@@H]2C(=O)O	-2.4%	-11.8%	.	.
CCC(=O)N1N=C(c2ccc(C)cc2)CC1c1ccco1 (centres undefined)	0.2%	-9.8%	-6.1	-41.9%
COc1ccc(OC)c(NC(=O)CC2SC(=NCc3ccccc3)NC2=O)c1 (centres undefined)	0.0%	-2.1%	-2.6	23.5%
CCOC(=O)[C@@H]1[C@H]2COc3cc(OC)ccc3[C@@H]2N2C(=O)N(c3ccc(OC)cc3)C(=O)[C@@]12C	-0.4%	-8.3%	.	.
CC(=O)NC1(c2nnnn2CCOC(=O)Nc2ccc(Cl)cc2)CCCCC1	0.0%	-4.8%	-2.1	-12.7%
COc1cccc(C2C3=C(N=C4SCC(=O)N42)c2ccccc2CC3)c1OC (centres undefined)	-1.5%	?	-8.2	-6.7%
CC(=O)c1sc(NC(=O)C2(F)C(F)(F)C(F)(F)C(F)(F)C(F)(F)C2(F)F)nc1C	-0.1%	12.5%	-11.1	?
CSCCC(NC(=O)c1occc1C)C(=O)O (centres undefined)	1.2%	-4.4%	-0.7	-10.2%
CN(Cc1ccc(Cl)cc1)C(=O)COC(=O)CSc1ccc([N+](=O)[O-])cc1	0.6%	6.1%	.	.
COC(=O)C1(C)NC(c2cccc(C)c2)C2C(=O)N(c3ccc(F)cc3)C(=O)C21 (centres undefined)	1.3%	-2.2%	.	-2.9%
COCCNC(=O)C(c1ccc(C)o1)N(C(=O)c1snc(C(N)=O)c1N)c1ccc(C)cc1 (centres undefined)	1.2%	-1.4%	-0.8	-9.2%
CN1CC(=O)N(CC(=O)Nc2ccc(Br)cc2F)C1=O	1.1%	3.5%	3.8	4.2%
CCC(=O)N(c1nnc(SCC(=O)Nc2ccccc2Cl)s1)C1CC1	4.1%	6.6%	.	.
Cc1cc(NS(=O)(=O)c2ccc(Nc3nc(-c4sc(NC(=O)c5ccccc5)nc4C)cs3)cc2)no1	.	.	-7.1	-8.7%
CCCCCCC1CC(=O)NC(=S)N1 (centres undefined)	-1.7%	1.9%	-5.5	17.4%
Cc1ccc2[nH]c(=O)c3cc(C(=O)N4CCN(C(=O)c5ccco5)CC4)sc3c2c1	-0.2%	-12.0%	1.7	2.5%
c1ccc(CNc2nc(N3CCOCC3)nc(N3CCOCC3)n2)cc1	3.5%	12.2%	-2.1	-18.8%
CC(=O)c1ccc(NC(=O)Cn2nc(C)c([N+](=O)[O-])c2C)cc1	1.3%	12.7%	3.7	6.1%
CCC(=O)Nc1ccc2c(c1)Cc1cc(NC(=O)CC)ccc1-2	-4.8%	0.5%	.	-8.5%
COc1ccc(C2/C(=C(/O)c3ccc(C)cc3)C(=O)C(=O)N2c2ccccn2)cc1 (centres undefined)	-1.0%	-4.9%	.	-1.0%
Cc1ccc(NCc2nnc(SCc3ccc(C#N)cc3)n2Cc2ccco2)c(C)c1	-5.0%	-11.9%	-2.8	6.1%
Cc1cc(Oc2ccc(C#N)cc2)nc(N2CCOCC2)n1	2.3%	-13.0%	-0.1	-25.2%
Cc1cccc(N2C(=O)N3[C@H](c4ccc(F)cc4)[C@@H]4C(=O)N(C5CCCCC5)C(=O)[C@@H]4[C@]3(Cc3ccccc3)C2=O)c1	-0.9%	-4.6%	.	4.6%
Cc1cc(C)nc(N(C#N)Cc2ccccc2)n1	-0.5%	-12.9%	-2.8	-15.4%
O=C(c1n[nH]c2ccccc12)N1CCN(S(=O)(=O)c2ccc(Cl)cc2)CC1	6.5%	-2.4%	.	.

Some of the entries so far, bar-delimited:
canonical_smiles | Rango-impB inh | Rango release inh | GLA inh pH 4.5 | miR-21 reporter
Cc1cc(C)nc(N(C#N)Cc2ccccc2)n1 | -0.5% | -12.9% | -2.8 | -15.4%
O=C(c1n[nH]c2ccccc12)N1CCN(S(=O)(=O)c2ccc(Cl)cc2)CC1 | 6.5% | -2.4% | . | .

Next section:
SMILES	Rango-impB inh	Rango release inh	GLA inh pH 4.5	miR-21 reporter
CNC(=O)c1sc2nc(-c3ccc(OC)cc3)cn2c1C	-1.0%	-14.1%	-7.2	-79.8%
CC(C)(C)NC(=O)COC(=O)c1cc(Br)ccc1Cl	-2.2%	-14.1%	6.8	-5.6%
Cc1cccc(S(=O)(=O)Nc2nc3ccccc3nc2Nc2ccc3c(c2)OCO3)c1	4.6%	-4.3%	-9.3	-1.5%
CN(C)CCCNC(=S)NCc1ccc(Cl)cc1	0.8%	-3.2%	9.0	0.4%
CCCCOc1ccc(Br)cc1CSC(=N)N	0.3%	-23.0%	-9.5	?
N#Cc1ccc(NCC(=O)Nc2ccc3c(c2)OCCO3)cc1	0.0%	2.1%	4.6	-6.9%
Cc1ccc(C(=O)N/N=C\c2ccc[nH]2)cc1[N+](=O)[O-]	1.4%	7.7%	10.0	-10.3%
O=C(COC(=O)c1ccc(Cl)c(S(=O)(=O)NCc2ccccc2)c1)NCC1CCCO1 (centres undefined)	0.5%	22.3%	-7.2	2.4%
Cc1ccc(S(=O)(=O)NC[C@H]2O[C@@H](n3cnc4c(N)ncnc43)[C@H](O)[C@@H]2O)s1	0.6%	2.9%	.	.
N#CCCN(C(=O)COC(=O)C1CCN(S(=O)(=O)c2ccccc2C(F)(F)F)CC1)c1ccccc1	-0.7%	1.9%	.	.
Cc1cccc(NC(=S)NCc2cccs2)c1	1.6%	-18.1%	-11.2	-11.3%
CC(C(=O)OCC(=O)c1cccc([N+](=O)[O-])c1)N1C(=O)C2C3CCC(C3)C2C1=O (centres undefined)	3.4%	-12.6%	7.1	-7.4%
O=C(Cn1cnc2sc(-c3ccccc3)cc2c1=O)N1CCOCC1	0.4%	2.6%	2.4	-1.6%
COc1ccc(/C=C(\NC(=O)c2ccccc2)C(=O)NCc2ccco2)cc1OC	-2.0%	-0.3%	.	-1.1%
CCN(C(=O)c1ccc2c(c1)OCO2)C12CC3CC(CC(C3)C1)C2	-4.6%	1.1%	.	.
Cc1ccc(S(=O)(=O)N2CCCN(C)CC2)cc1	4.9%	0.8%	.	-5.0%
COc1ccc(C(=O)N2CCN(S(=O)(=O)c3ccc(Br)cc3)CC2)cc1	-0.2%	3.3%	.	.
COc1nc2cc(C)ccc2cc1-c1noc(-c2cccnc2)n1	.	.	-1.8	-5.1%
O=C(NCCCN1CCCC1=O)c1cc2ccccc2o1	0.0%	-3.6%	.	.
Cc1ccc(NC(=S)N(CCCN(C)C)Cc2cc3cc4c(cc3[nH]c2=O)OCO4)cc1	1.5%	-6.5%	4.1	-10.0%
CCOC(=O)CSc1n[nH]c(NC(=O)c2ccc(F)cc2)n1	0.1%	1.5%	-18.6	-6.1%
Cc1csc(NC(=O)CCC(=O)N(CC(=O)NC2CCCC2)c2ccccc2)n1	6.5%	22.2%	.	2.7%

Of the compounds above, these have a Cl atom.
SMILES	Rango-impB inh	Rango release inh	GLA inh pH 4.5	miR-21 reporter
Cc1onc(-c2c(F)cccc2Cl)c1C(=O)N1C=CC(C(F)(F)Cl)=NCC1	-3.9%	-8.0%	1.3	-0.5%
O=C(CCc1nc2ccccc2c(=O)[nH]1)N1CCN(c2ccccc2Cl)CC1	4.8%	-2.3%	.	.
CC(=O)NC1(c2nnnn2CCOC(=O)Nc2ccc(Cl)cc2)CCCCC1	0.0%	-4.8%	-2.1	-12.7%
CN(Cc1ccc(Cl)cc1)C(=O)COC(=O)CSc1ccc([N+](=O)[O-])cc1	0.6%	6.1%	.	.
CCC(=O)N(c1nnc(SCC(=O)Nc2ccccc2Cl)s1)C1CC1	4.1%	6.6%	.	.
O=C(c1n[nH]c2ccccc12)N1CCN(S(=O)(=O)c2ccc(Cl)cc2)CC1	6.5%	-2.4%	.	.
CC(C)(C)NC(=O)COC(=O)c1cc(Br)ccc1Cl	-2.2%	-14.1%	6.8	-5.6%
CN(C)CCCNC(=S)NCc1ccc(Cl)cc1	0.8%	-3.2%	9.0	0.4%
O=C(COC(=O)c1ccc(Cl)c(S(=O)(=O)NCc2ccccc2)c1)NCC1CCCO1 (centres undefined)	0.5%	22.3%	-7.2	2.4%

Screening data from PubChem BioAssay.

The list is partial; the hit share may differ from the screen's.
